Screening data as filed in PubChem BioAssay.
Sa ugtP lethal = growth inhibition of ugtP-null S. aureus, primary screen, RN4220 ugtP deletion, OD600; 16 h; some inactives read as strong as hits; growth inhibition, % (test concentration not listed); 0.54% of 330,000 active;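 active means z-score under -3 and OD600 up to 0.15 on both plates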;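 further: plate controls were untreated wells for no effect and antibiotic for full effect; wells of about 80 µL received 100 nL stock; the first replicate is given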
Mtb hypoxia inh = PubChem AID 1159583; M. tuberculosis hypoxia-regulated fluorescent reporter, fluorescence; 0.1% of 300,000 active; fluorescence inhibition, % (concentration not given with the values);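 active means 35 to 45% if threefold the growth effect, above 45% if 1.5-fold the growth effect; inactive means the rest, general growth blockers included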;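 further: wells of about 50 µL received 100 nL stock; 0% = vehicle wells and 100% = reference inhibitor wells; whole bacteria with a GFP reporter of the hypoxia response; strong numbers were not always called active; many hits fall short of the cut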
PrP UTR inh = inhibition of PrP 5' UTR reporter expression. cell-based PrP 5' UTR mRNA reporter, plate reader. AID 488862, 2010. 0.35% of 340,000 active. inhibition, % (concentration not given with the values);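 active means every replicate at 50% or more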;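 further: 0 = median of the neutral control wells; tested in H4 reporter cells; numbers are from one replicate; inactives centre near -14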
Autofluor counter = compound fluorescence in toxin protease inhibitor counterscreen. compound autofluorescence counterscreen, microsphere flow cytometry; active compounds read high. fluorescence intensity (concentration not given with the values). 3.1% of 360,000 active;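 active means at least 3 SD above the mean of all compounds, about 16000 in these data; inconclusive means too few beads counted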;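 further: 100 nL of 1 mM stock went into each well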
BJeLR lethal = MLPCN primary cell-based screen for lethality selective to Ras in HRASV12 cells. inhibition, % (test concentration not listed). BJeLR (HRASV12) viability, CellTiter-Glo ATP luminescence, 48 h; reference of the scale not given here. 0.17% of 300,000 active;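 active means replicate mean above 50%; inconclusive means above 50% but judged a plate artefact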;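 further: 50 nL library stock added to about 25 µL; numbers are from one replicate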
RN4220 kill = growth inhibition of S. aureus RN4220, primary screen, OD600; AID 1259311, 2017; 16 h; inhibition, % (test concentration not listed); 0.33% of 330,000 active;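 active means z-score of -3 or lower and OD600 up to 0.18 on both plates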;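 further: plate controls were untreated cells for no effect and reference antibiotic for full effect; stock transfer was 100 nL into about 80 µL; one replicate is shown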
Mtb hypoxia inh growth = second read-out of Mtb hypoxia inh, no call of its own (marks repeat the call); growth inhibition, %; measured here: M. tuberculosis growth (absorbance);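 0% = vehicle and 100% = reference antibiotic; read after six days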
Starred values were filed as active, the others as inactive; u = inconclusive; x = no result given; & = joins results of further samples.

cpd	SMILES	Sa ugtP lethal	Mtb hypoxia inh	Mtb hypoxia inh growth	PrP UTR inh	Autofluor counter	BJeLR lethal	RN4220 kill
1	Cc1cc(C)c2c(CC(=O)NCc3ccco3)coc2c1	-6	5	1	-21	9446	-5	-4.6
2	COc1nc(N(C#N)CC(N)=O)nc(N2CCCC2)n1	1	15	4	-29	20491*	-6	0.1
3	CCOC(=O)c1ccc(NC(=S)N2CCC(O)CC2)cc1	2	16	1	-62	2467	8	1.6
4	OC(COc1ccccc1CNCc1cccnc1)CN1CCc2ccccc2C1 (stereo not drawn)	x	x	x	-7	7190	13	x
5	COc1ccc([C@]2(C(C)C)ON(c3ccccc3C(F)(F)F)C2=O)cc1	28	6	8	-7	4047	x	13
6	O=C(C1=C(O)C(=O)N(CC2CCCO2)C1c1cccc(Cl)c1)c1ccco1 (stereo not drawn)	-6	2	-4	-7	3659	-4	9.0
7	Cc1ccc(Nc2nc(C)cc(C)c2C(N)=O)cc1	0	11	9	-22	3469	-3	3.3
8	COc1ccc(CNC(=O)c2cc3ccccc3o2)cc1OC	-5	-7	4	-12	3945	-2	-0.4
9	CSCC[C@H](NS(=O)(=O)c1ccc(C)cc1)C(=O)N1CCC(C(=O)N[C@@H](Cc2ccc(O)cc2)C(=O)O)CC1	-7	x	x	-17	5816	-4	3.0
10	CCCCC(=O)Nc1nnc(SCC(=O)NCC2CCCO2)s1 (stereo not drawn)	6	11	3	-26	6736	-8	2.7
11	Cc1oc2cc(O)cc(O)c2c(=O)c1-c1ccc2c(c1)OCCCO2	12	7	4	-4	4334	11	7.8
12	O=C(CSc1nnc(SCc2cccc3ccccc23)s1)N/N=C/c1c[nH]c2ccccc12	x	x	x	-63	2066	-4	x
13	COc1ccc(OCC(=O)Nc2cccc(C(=O)Nc3ccccc3C(=O)O)c2)cc1	2	1	4	-17	2465	-2	5.6
14	Cc1cccc(NC(=O)CSc2nc(COc3ccccc3)nc3ccccc23)c1C	2	1	2	-15	12980	-2	11
15	CCCCN(CCCNC(=O)C1CCCN(S(=O)(=O)CC)C1)Cc1ccccc1 (stereo not drawn)	5	x	x	-27	3028	12	2.6
16	Cc1oc2ccc(O)c(CN(C)C)c2c1C(=O)c1ccccc1	10	5	5	-5	2336	-1	5.4
17	Cc1oc(-c2cccc(Cl)c2)nc1CN1CCC(C(=O)N2CCN(c3ccccn3)CC2)CC1	4	x	x	2	6634	x	2.9
18	CCCCCn1c(=O)c(C(=O)OCC)c(O)c2ccccc21	6	x	x	-8	4213	-2	2.7
19	CC(C)NC(=O)/C(C#N)=C/c1ccc(N(C)C)o1	7	24	15	-13	4837	-17	4.9
20	O=C(c1ccccc1)c1ccccc1C(=O)c1ccccc1	9&6	15&1	4&9	-5	3279&6013	7&-14	5.0&8.7
21	CCOc1ccc(C2C(C(=O)OC)=CN(CCOC)C=C2C(=O)OC)cc1	9	16	2	-16	10009	3	1.1
22	CC(C)Oc1ccc(N2CC(C(=O)OCC(=O)NCc3ccccc3)CC2=O)cc1 (stereo not drawn)	3	5	-1	-32	7046	-7	-3.3
23	COc1ccc(Cl)cc1N1CCN(CCNC(=O)Nc2ccccc2C)CC1	14	x	x	8	2071	4	3.6
24	O=C(CN(c1ccc([N+](=O)[O-])cc1)S(=O)(=O)c1ccccc1)N1CCCCC1	x	x	x	-19	3087	-9	x
25	CC(C)(NO)C(=NO)c1cccs1	2	12	5	x	x	x	-8.6
26	Cc1ccccc1C(=O)NCC(=O)NNC(=O)CCN1CCN(c2ccccc2)CC1	0	-4	-9	-11	5507	-10	2.8
27	COc1cc(/C=N/NC(=O)c2cccc3ccccc23)ccc1OCC(N)=O	x	x	x	-10	4306	1	x
28	CC(C)[C@H](NC(=O)N1c2ccccc2NC(=O)[C@@H]1C(C)C)C(=O)N1CCC[C@H]1C(=O)O	8	x	x	-58	5007	-4	1.3
29	CC(C)(C)NC(=O)CSc1nnnn1C(C)(C)C	2	4	8	-12	6389	4	1.9
30	COc1ccc(NC(=O)C2CCCN2S(=O)(=O)c2cccs2)c([N+](=O)[O-])c1 (stereo not drawn)	3	3	6	-18	5651	-3	1.3

Next part; it opens with the 4 that closed the last part.
cpd	SMILES	Sa ugtP lethal	Mtb hypoxia inh	Mtb hypoxia inh growth	PrP UTR inh	Autofluor counter	BJeLR lethal	RN4220 kill
27	COc1cc(/C=N/NC(=O)c2cccc3ccccc23)ccc1OCC(N)=O	x	x	x	-10	4306	1	x
28	CC(C)[C@H](NC(=O)N1c2ccccc2NC(=O)[C@@H]1C(C)C)C(=O)N1CCC[C@H]1C(=O)O	8	x	x	-58	5007	-4	1.3
29	CC(C)(C)NC(=O)CSc1nnnn1C(C)(C)C	2	4	8	-12	6389	4	1.9
30	COc1ccc(NC(=O)C2CCCN2S(=O)(=O)c2cccs2)c([N+](=O)[O-])c1 (stereo not drawn)	3	3	6	-18	5651	-3	1.3
31	CCC(C)c1ccc(S(=O)(=O)N2CCN(CC(O)CN3CCOCC3)CC2)cc1 (stereo not drawn)	4	-1	2	-32	7877	x	5.5
32	Cc1cccc(NC(=O)NNC(=O)COc2ccc(Cl)cc2)c1	2	0	-1	-10	2270	1	4.8
33	COc1ccc(CNC(=O)CCSCc2cccc(Cl)c2)c(OC)c1	-2	8	3	-3	2749	-5	-4.9
34	O=C(/C=C/c1ccc([N+](=O)[O-])cc1)N1CCN(Cc2ccccc2)CC1	1	-3	9	-20	3497	-3	2.5
35	COc1ccc(NC(=O)CC2CCCC2)cc1OC	4	2	1	-14	5899	-5	6.9
36	CC(=NN1C(=O)c2ccccc2C1=O)c1cccc([N+](=O)[O-])c1	6	9	8	x	x	x	4.8
37	O=C(Oc1ccc(-c2nnco2)cc1)N1CCOCC1	5	x	x	-11	4079	1	2.3
38	Cc1cccc(C)c1OCC(=O)NNC(=O)Nc1ccc(Cl)cc1	7	17	10	-12	6943	0	4.1
39	CC(C)(CCc1ccccn1)C(=O)CCCc1ccccn1	0	8	3	-7	3733	x	4.0
40	O=C(NNC(=O)c1ccc(F)cc1)C(=O)N1CCCCC1	4	9	4	-16	7028	19	4.5
41	CC(=O)Nc1ccc(NC(=O)N2CCCCC2)cc1	-7	-6	-7	-22	3218	-3	1.1
42	c1ccc(P(c2ccccc2)c2ccccn2)cc1	3	17	10	-29	4289	-6	4.7
43	CCOc1ccc(CNC(=O)CCCn2nc(CC)n3c(cc4occc43)c2=O)cc1	10	4	-4	-17	6396	-16	0.3
44	COc1cc(N2C(=O)CSC2=S)cc(OC)c1OC	3	14	7	-8	3575	4	1.4
45	Cc1occc1C(=O)N/N=C/c1cnn(C)c1C	x	x	x	-27	4124	-2	x
46	CCOC(=O)N1CCN(c2c(N3CCN(C(=O)OCC)CC3)c(=O)c2=O)CC1	-8	2	4	-6	6066	8	1.8
47	CCCCc1ccc(NC(=S)NCCO)cc1	4	-4	-10	-8	2352	4	3.8
48	CCCc1cc(=O)[nH]c(SCC(=O)c2cc(C)n(-c3cc(C)on3)c2C)n1	6	9	16	-41	4190	-4	3.1
49	CC(=O)C1=C(O)C(=O)N(c2cc(C(C)(C)C)on2)C1c1ccc(Br)cc1 (stereo not drawn)	7	-8	4	-3	9045	5	6.3
50	CC(=O)OC1C=CC2[C@H]3Cc4ccc(O)c5c4[C@@]2(CCN3C)C1O5 (stereo partly drawn)	5	x	x	-17	6477	x	1.7
51	Clc1ccc(C2NCCc3[nH]cnc32)cc1 (stereo not drawn)	3	3	4	-10	2632	-8	3.8
52	CCC(=O)c1ccc(OC(=O)c2cnccn2)cc1	6	-3	3	-19	4089	8	5.5
53	CC(=O)OCCNC(=O)c1cccnc1	14	6	-9	-27	7314	-1	6.6
54	CCOc1ccc(NC(=S)Nc2ccc(OCc3ccccc3)cc2)cc1	x	x	x	-5	7933	-4	x
55	CC1(C)N=C(N)NC(Nc2cccc(Br)c2)=N1	-10	-4	11	-5	4508	11	-1.2
56	N#Cc1ccc(NC(=O)c2cc(=O)c3ccccc3o2)cc1	5	-1	3	-2	u	-7	-3.3
57	C=CCN1c2ccccc2[C@]23CC(C(=O)OC)N(C(=O)c4cc(C)oc4C)C2=NC(C(=O)OC)=C(C(=O)OC)C13 (stereo partly drawn)	4	2	4	x	x	x	5.5
58	CC1(C)c2[nH]c3ccccc3c2C[C@H]2C(=O)N(Cc3ccccc3F)C(=O)N21	x	x	x	-11	2989	7	x
59	CCc1ccc(CN(C)C(=O)c2cc(=O)c3ccccc3o2)cc1	6	7	5	-12	5151	-3	0.9
60	O=C(CN1C(=O)C2CC=CCC2C1=O)Nc1nc2ccc(F)cc2s1 (stereo not drawn)	-2	-8	1	-13	3765	-12	-2.6
61	Cc1ccc(C2c3[nH]c4ccccc4c3C[C@H]3C(=O)N(c4ccccc4C(=O)NCCN4CCOCC4)C(=O)N23)cc1 (stereo partly drawn)	-4	x	x	-11	5664	-3	-2.9
62	COc1c(/C=N/NC(=O)[C@H]2C[C@@H]2c2ccccc2)c(CCN(C)C(C)=O)cc2c1OCO2	x	x	x	-14	5788	2	x
63	O=C1CCC(=O)N1OCCCOc1ccc(Br)cc1Cl	19	x	x	-26	4328	5	11
64	Cc1cc(Br)ccc1NC(=O)CN(C)C(=O)C1CSC2(C)CCC(=O)N12 (stereo not drawn)	4	13	8	-25	4335	x	3.5
65	CCOc1ccccc1NC(=S)NNS(=O)(=O)c1c(C)cc(C)cc1C	-3	-1	3	-17	2501	-21	16
66	CCC1(c2ccccc2)NC(=S)N(c2ccc(C)c(C)c2)N1 (stereo not drawn)	5	2	-4	-32	3834	-1	0.2
67	O=C(NCCc1ccccc1)c1cnc2n(c1=O)CCS2	2	6	3	-38	4635	-10	1.4
68	COc1ccc(OC)c(N(CC(=O)Nc2cccc(C(F)(F)F)c2)S(C)(=O)=O)c1	-2	-3	0	-20	2881	1	0.6
69	CCCCOC(=O)c1ccc(NC(=O)C2CCCO2)cc1 (stereo not drawn)	-2	3	1	-26	3320	8	-2.2
70	CC(=O)N1c2ccccc2C(=O)OC1c1cccnc1 (stereo not drawn)	5	-1	-2	-49	2786	-6	12
71	Cc1c(C(=O)NCCCN2CCOCC2)sc2ncnc(N3CCN(c4ccccc4)CC3)c12	10	x	x	-18	2162	x	1.1
72	CCc1ccccc1NC(=O)N[C@@H](C)C(=O)OC	2	-5	5	-14	13542	5	0.2
73	CCCCn1c(N)c(N(CCOC)C(=O)CN2C(=O)C3CCCCC3C2=O)c(=O)[nH]c1=O (stereo not drawn)	3	8	0	-49	3620	x	2.8
74	COc1ccc(-c2csc(N)n2)cc1F	4	-1	6	-18	4246	1	1.0
75	Cc1ccccc1-n1ncc2c([N+](=O)[O-])cc([N+](=O)[O-])cc21	x	x	x	-24	3242	-7	x
76	Cc1sc2nc(SCC(=O)NCc3ccco3)n(-c3ccccc3)c(=O)c2c1C	2	9	-1	-12	11412	7	1.0
